MT1-MMP act inh – blocks activation of human MT1-MMP. P50281. HT1080 RFP-PRO-GFP cells, GFP/RFP ratio fluorescence, overnight; percent of plate control window, DMSO zero. GFP/RFP ratio change, % at 20 µM. actives 0.061% (n = 360,000);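 active = GFP/RFP ratio change of at least 30% with cell ATP level not reduced by more than half and red fluorescence within 50% of control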; note: strong numbers were not always called active
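Assay system: HT1080 RFP-PRO-GFP cells | Dosing: 20 µM single dose, 1% DMSO | Incubation: Cells overnight before dosing, compound overnight, 37 °C, 5% CO2 | Evaluation: GFP/RFP fluorescence ratio | Control set: DMSO-only wells and HT1080 RFP-L50D-GFP cell wells as references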
Rce1 inhib – yeast Ras-converting enzyme inhibition. calls only. Q03530. AID 2563. yeast membranes, quenched prenylated peptide cleavage fluorescence. actives 0.27% (n = 290,000);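 active = fall in fluorescence gain of 50% or more versus controls, with final raw signal at or below 3038400; inconclusive = same 50% fall but final raw signal above 3038400; inactive = fall in fluorescence gain under 50%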;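 note: plate controls were neutral control wells for no effect and wells lacking membranes for full effect; tested at 10 µM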
Target sequence (Q03530 whole entry, looked up): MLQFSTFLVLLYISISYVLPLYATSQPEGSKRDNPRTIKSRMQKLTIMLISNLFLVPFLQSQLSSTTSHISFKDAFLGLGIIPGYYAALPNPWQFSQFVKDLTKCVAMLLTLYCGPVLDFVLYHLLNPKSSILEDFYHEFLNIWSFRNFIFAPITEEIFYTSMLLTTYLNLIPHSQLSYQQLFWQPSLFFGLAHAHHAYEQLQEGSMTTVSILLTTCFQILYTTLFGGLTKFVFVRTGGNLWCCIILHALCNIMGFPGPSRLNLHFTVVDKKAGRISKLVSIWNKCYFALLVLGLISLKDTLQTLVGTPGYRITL
HIV Env fusion – blocks HIV Env-driven cell-cell fusion; actives 1.1% (n = 360,000); AID 651610; HeLa-JRFL Env/CEM21 cell fusion, luciferase; inhibition, % at 12.3 µM;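 active = mean replicate inhibition score of at least 50 and every replicate individually at or above 50; inconclusive = only one of the two criteria met; inactive = mean below 50 and not all replicates reaching 50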;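 note: 0% = plate neutral controls and 100% = maraviroc near 300 nM; one replicate is shown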
UUG fidelity – alters start codon recognition fidelity in yeast; S. cerevisiae UUG-firefly luciferase reporter, luminescence/redox ratio; actives 0.13% (n = 350,000); activity score, % at 18.7 µM;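 active = replicate mean at a twofold rise or more, about +100% in these data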;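 note: firefly luciferase made from a UUG start codon reports start codon fidelity; reporter light over untreated wells divided by growth signal over untreated wells; some hits fall short of that in this replicate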
CSC inhib – blocks cancer stem cells; cancer stem cell-like cells viability, luminescence; inhibition, % at 7.5 µM; actives 1.1% (n = 300,000); AID 2717;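 active = mean at 75% or more and at least half the replicates too; inconclusive = mean and replicates disagree; tested in HMLE shEcad cells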;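 note: 0% = median of negative and 100% = median of positive control wells; the first replicate is given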
PABP FP inh – blocks human PABP binding to poly(A) RNA | fluorescence polarization | inhibition, % at 35 µM | actives 1% (n = 290,000);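 active = 50% or more with normal probe brightness, or confirmed in later tests; inconclusive = above 50% with abnormal brightness, or retests that disagree; inactive = below 50% or failed in later tests; about a fifth of its hits are not listed in these tables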;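 note: calls also rest on retests at 20 µM and on dose response follow-up; controls were probe without protein and protein plus probe with vehicle; some compounds called inactive have numbers as strong as hits; many hits fall short of the cut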
eIF4H FP inh – inhibitors of RNA binding by human eIF4H | Q15056 | eIF4H fluorescence polarization binding assay | inhibition, % at 35 µM | actives 0.94% (n = 290,000) | AID 2012;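 active = 50% or more with normal probe brightness, or confirmed in later tests; inconclusive = above 50% with abnormal brightness, or retests that disagree; inactive = below 50% or failed in later tests; about a fifth of its hits are not listed in these tables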;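 note: calls also rest on retests at 20 µM and on dose response follow-up; 0% = protein and probe with vehicle and 100% = probe without protein; strong numbers were not always called active; many hits fall short of the cut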
MT1-MMP act inh RFP – recorded beside MT1-MMP act inh, whose call it bears; RFP signal change, %; measured here: RFP expression control read;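 0 = vehicle wells; hits needed this value within 50% of zero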
The depositor's hits bear a star; i = inactive; ? = inconclusive; . = not tested or not shown; & = joins results of further samples.

canonical_smiles	MT1-MMP act inh	MT1-MMP act inh RFP	Rce1 inhib	HIV Env fusion	UUG fidelity	CSC inhib	PABP FP inh	eIF4H FP inh
COc1cccc(CN2CCC2(C)C(=O)Nc2cccc(NS(C)(=O)=O)c2)c1OC (configuration not stated)	-3.9	-1.5	.	-22.3	1.1	.	.	.
CC(OC(=O)c1ccccn1)C(=O)Nc1nc(-c2ccc(F)c(F)c2)cs1 (configuration not stated)	3.7	0.2	.	-53.2	-4.9	-11.2	.	.
COc1ccccc1-c1nnc(SC(C)C(=O)NCC2CCCO2)n1C (configuration not stated)	-0.8	4.5	.	-4.6	-18.2	.	.	.
O=S(=O)(/N=C(/c1ccccc1)N1CCOCC1)c1ccc(F)cc1F	0.0	-2.3	.	.	-8.3	-0.1	.	.
O=C(CSc1ncccn1)Nn1cnnc1	-0.6	1.3	i	-87.3	-26.1	-9.0	4.5	-4.0
O=C(NCCc1ccccc1Cl)c1cc(COc2ccc(F)cc2F)on1	0.4	-0.3	i	.	-10.4	9.1	0.9	-19.9
CC(C)C[C@H](NC(=O)N1CCN(c2ccccc2)CC1)C(=O)O	-4.7	-1.1	i	-7.5	-8.5	-8.3	-5.5	0.4
C=CCn1c(SCc2cccnc2)nnc1-c1ccncc1	-4.1	0.3	i	8.2	-12.8	-5.0	-3.6	-6.6
Cc1cccc(NC(=O)CSc2nnc(NC(=O)C3CCC3)s2)c1	3.4	-3.8	i	1.3	0.7	2.3	2.0	-3.3
CC(=O)c1sc(NC(=O)COc2ccc(Br)cc2)nc1C	0.8	0.4	i	16.4	.	-8.3	-3.2	-15.8
Cc1ccc(NC(=O)c2nnn(-c3ccc4c(c3)OCCO4)c2N)cc1	-0.7	-10.1	.	-21.8	2.3	-0.7	11.1	-1.3
O=C1CCCN1c1ccc(S(=O)(=O)N2CCN(c3ccccc3)CC2)cc1	3.0	-2.0	i	8.2	-7.5	-10.9	5.9	3.6
Cc1cc(O)ccc1-c1ccc2nncn2c1	3.7	4.3	.	-11.2	-30.5	.	.	.
COc1ccccc1OCCSc1nc2ccccc2n1CC(O)CO (configuration not stated)	3.6	-0.9	.	-29.2	-2.2	-18.8	2.5	-3.6
Cc1ccc(C2CCN(C(=S)Nc3cccc(C)c3)C2)cc1 (configuration not stated)	2.9	-2.2	i	-18.8	.	1.4	-8.2	-7.0
CCCCNc1c([N+](=O)[O-])c(=O)n(C)c2ccccc12	-0.2	-2.9	.	-4.6	-13.3	-2.3	7.8	1.7
Cc1cc(NC(=O)CN2C(=O)NC3(CCCCC3C)C2=O)no1 (configuration not stated)	3.9	4.9	i	-5.9	.	-0.1	-5.2	-2.2
COCC(C)n1c(C)cc(C(=O)COC(=O)c2c(NC(C)=O)sc(C)c2C)c1C (configuration not stated)	-0.5	-0.6	i	-10.4	-17.3	4.2	-6.6	9.7
COc1ccccc1OCCCCNCCO	0.1	1.6	i	.	-3.7	9.9	-6.1	-4.1
O=C1Nc2ccc(Br)cc2C1(O)Cc1ccccn1 (configuration not stated)	2.4	1.8	i	.	-4.5	.	-2.9	-1.9
COc1ccc(/C=N/Nc2nn3cnnc3c3ccccc23)cc1	4.7	0.8	i	21.4	.	10.3	-4.5	-2.4
O=C(NCC1([N+](=O)[O-])CN(C(=O)c2ccccc2)CN(C(=O)c2ccccc2)C1)c1ccccc1	-2.0	-1.0	.	39.0	9.5	-12.9	-1.0	-9.6
CCN(CC)C(=O)Cn1c(=O)n(CCCC(=O)NCc2ccc3c(c2)OCO3)c(=O)c2sccc21	2.4	2.5	i	-13.4	-18.0	-4.5	6.7	-7.0
O=C(NCc1ccc2c(c1)OCO2)c1ccc(N2CCCCCC2)c([N+](=O)[O-])c1	6.2	-3.1	i	9.5	.	29.6	-13.1	-5.0

Compound profiles, as listed above. Values in the order: MT1-MMP act inh | MT1-MMP act inh RFP | Rce1 inhib | HIV Env fusion | UUG fidelity | CSC inhib | PABP FP inh | eIF4H FP inh
Results for COc1ccc(/C=N/Nc2nn3cnnc3c3ccccc23)cc1 → 4.7 | 0.8 | i | 21.4 | . | 10.3 | -4.5 | -2.4
Results for Cc1cc(NC(=O)CN2C(=O)NC3(CCCCC3C)C2=O)no1 (configuration not stated) → 3.9 | 4.9 | i | -5.9 | . | -0.1 | -5.2 | -2.2

Next section
canonical_smiles	MT1-MMP act inh	MT1-MMP act inh RFP	Rce1 inhib	HIV Env fusion	UUG fidelity	CSC inhib	PABP FP inh	eIF4H FP inh
O=C(Nc1ccc2c(c1)OCCO2)c1ccco1	-1.2	-5.2	i	.	-41.6	.	-6.2	-9.0
N#Cc1c(-c2ccc(F)cc2)nc(-c2ccccc2)[nH]c1=O	-0.1	-8.1	i	21.4	-25.2	26.9	7.4	-0.7
COc1ccc(N(CC(=O)NCc2ccccc2)S(=O)(=O)c2c(C)n[nH]c2C)cc1	-3.7	3.3	i	-1.3	-26.8	-13.4	7.2	1.3
CCCCN(C)C(=O)CCC(=O)Nc1ccc2nc(N3CCN(C)CC3)cc(C)c2c1	1.2	6.8	i	6.8	-14.8	-6.2	11.1	0.9
CN[C@H](C(=O)NC[C@H]1O[C@@H](n2cnc3c(N)ncnc32)[C@H](O)[C@@H]1O)[C@@H](C)OCc1ccccc1	2.7	4.2	.	-22.7	-10.8	.	.	.
CCn1c(/C=C/N(C(C)=O)c2ccccc2)[n+](CCCS(=O)(=O)[O-])c2cc(Cl)c(Cl)cc21	-0.3	5.2	i	2.3	.	5.9	-6.3	-2.0
O=C(c1c(F)cccc1F)N1CCN(c2ncccn2)CC1	5.2	2.6	i	10.4	3.0	.	2.0	1.0
Cc1ccc(N=Cc2cc(Br)cc(Cl)c2O)cc1	-3.8	-4.0	i	18.3	.	5.0	-6.6	18.7
COC(=O)CNC(=O)CN1C(=O)NC2(CCCc3ccccc32)C1=O (configuration not stated)	1.1	0.0	i	-16.0	-6.9	-10.0	7.7	-6.3
Cc1ccc(C(=O)Nc2ccccc2C(=O)NC(C(=O)O)C(C)C)cc1 (configuration not stated)	2.9	-1.3	i	-55.7	-6.0&1.2	.	1.1	-3.6
COc1ccc(-c2cn(Cc3ccc(C(N)=O)cc3)c(-c3ccc(Cl)nc3)n2)cc1	-0.7	0.5	.	-18.1	-22.7	-7.3	.	.
COc1cccc(-c2ccc(NC(=O)C3CCCN(Cc4cnn(C)c4C)C3)cc2)c1 (configuration not stated)	0.7	3.3	i	3.8	-10.7	5.6	-0.9	-6.7
Cc1cccc(CN2CCN(C(=O)CCl)CC2)c1	-0.4	1.0	i	22.5	-15.4	9.4	-16.7	1.0
CCOC(=O)CN1C(=O)S/C(=C/C=C/c2ccc(N(C)C)cc2)C1=O	-11.9	66.3	i	-90.2	.	39.6	3.8	?
Cc1cc(C)n(CC(=O)N/N=C/c2cc([N+](=O)[O-])ccc2O)n1	3.2	0.7	i	-14.5	.	-3.0	0.6	-5.8
Cc1cc2c(cc1C)NC1(C[C@H]3CCC(=O)N4CC[C@@H](C1)[C@@H]34)C(=NC(C)(C)CC(C)(C)C)N2 (some centres not stated)	0.5	-3.7	.	25.3	1.4	.	.	.
CCNC(=S)NNC(=O)C1CCCCC1	-4.1	-5.0	i	-15.5	-8.6	-10.1	1.1	0.5
CC(=O)Nc1ccc(N(CC(=O)NC2CCCC2)C(=O)CCC(=O)Nc2cc(C)on2)cc1	-3.0	-1.2	i	0.5	-11.3	-1.7	3.3	-3.8
Cc1csc(N/N=C/c2ccccn2)n1	-0.6	-3.3	.	-8.9	.	83.4*	-1.7	11.7
Cc1cc(C)c(C)c(S(=O)(=O)NCC(=O)O)c1C	-3.2	0.1	i	-289.7	-1.6	-3.8	-1.0	-1.3
FC(F)(F)c1ccccc1Cc1c(-c2cccc(Br)c2)nc2c3ccccc3ccn12	16.4	10.7	.	-10.9	-6.6	.	.	.
Cc1ccc(N2CC(C(=O)OCC(=O)c3ccc(C)c([N+](=O)[O-])c3)CC2=O)cc1 (configuration not stated)	2.1	1.8	i	-18.1	.	-4.0	.	.
O=C1OC(c2ccccc2)=C/C1=C/c1cccs1	-2.3	0.6	i	-6.8	1.2	-13.5	-7.0	-4.7
O=C1CCCC2=C1C(c1ccncc1)c1c(nc(SCc3ccccc3)[nH]c1=O)N2 (configuration not stated)	-2.6	2.6	i	15.2	-5.6	-15.7	-11.1	-5.0

Some of these compounds in order of formula weight, descending.
canonical_smiles	MT1-MMP act inh	MT1-MMP act inh RFP	Rce1 inhib	HIV Env fusion	UUG fidelity	CSC inhib	PABP FP inh	eIF4H FP inh
CC(=O)Nc1ccc(N(CC(=O)NC2CCCC2)C(=O)CCC(=O)Nc2cc(C)on2)cc1	-3.0	-1.2	i	0.5	-11.3	-1.7	3.3	-3.8
Cc1cc(C)n(CC(=O)N/N=C/c2cc([N+](=O)[O-])ccc2O)n1	3.2	0.7	i	-14.5	.	-3.0	0.6	-5.8
O=C1OC(c2ccccc2)=C/C1=C/c1cccs1	-2.3	0.6	i	-6.8	1.2	-13.5	-7.0	-4.7

(more compounds)
canonical_smiles	MT1-MMP act inh	MT1-MMP act inh RFP	Rce1 inhib	HIV Env fusion	UUG fidelity	CSC inhib	PABP FP inh	eIF4H FP inh
Cc1ccc(Cn2ncc3c(NN)ncnc32)cc1	-3.1	-2.7	i	-19.4	-6.2	28.4	0.0	-3.3
CCNC(=O)CC1C(=O)N(c2ccccc2)C(=O)N1CCc1ccc(OC)cc1 (configuration not stated)	5.9	0.3	i	.	-5.9	-8.5	2.3	-5.0
O=C(NCCCN1CCN(c2ccc(F)cc2)CC1)c1cccc(N2CCCC2=O)c1	-1.0	-3.8	i	.	-3.4	-18.6	-4.3	5.2
C=C1c2ccccc2O[C@H](C(=O)OCC)[C@H]1OC	-0.7	4.3	.	-6.3	1.2	.	.	.
CC1(NC(=O)Nc2ccccc2)CCS(=O)(=O)C1 (configuration not stated)	-0.3	-0.6	i	0.9	-8.6	-13.7	-3.4	-10.2
O=C(Nc1nnc(SCc2ccc(F)cc2)s1)c1cnccn1	2.5	-0.6	i	6.8	.	8.1	5.5	9.0
COc1cccc(C=Nc2cc(C)on2)c1O	0.6	0.3	i	-10.5	-20.5	.	-3.7	-11.8
Cc1nc(NC(=O)C2CC2)sc1C(=O)N(C)C	6.6	9.1	i	-12.8	-7.5	-10.2	1.6	-1.4

Gathered by group, the entries above with a COOH group (3)
canonical_smiles	MT1-MMP act inh	MT1-MMP act inh RFP	Rce1 inhib	HIV Env fusion	UUG fidelity	CSC inhib	PABP FP inh	eIF4H FP inh
CC(C)C[C@H](NC(=O)N1CCN(c2ccccc2)CC1)C(=O)O	-4.7	-1.1	i	-7.5	-8.5	-8.3	-5.5	0.4
Cc1ccc(C(=O)Nc2ccccc2C(=O)NC(C(=O)O)C(C)C)cc1 (configuration not stated)	2.9	-1.3	i	-55.7	-6.0&1.2	.	1.1	-3.6
Cc1cc(C)c(C)c(S(=O)(=O)NCC(=O)O)c1C	-3.2	0.1	i	-289.7	-1.6	-3.8	-1.0	-1.3

Not all compounds are listed; count on the stated rates, not on these rows.
